Mtb growth = Mycobacterium tuberculosis H37Rv growth inhibition, cell based, confirmatory dose response (AID 1949); most inactive calls were filed without a number and no value below 0 was filed; inhibition, % at 10 µg/mL; hits with a dose series show IC50 in µg/mL; 1.6% of 100,000 active;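 active = confirmed in a dose series; inconclusive = about 50% or more but not retested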;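 also: bacteria grown 7 days with compound before Alamar blue readout; 0% = untreated bacteria and 100% = reference antibiotic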
* = called active by the depositor; i = inactive; u = inconclusive.

Start of the listing, in advance (12 entries):
SMILES | Mtb growth
COc1ccc(Cl)cc1NC(=O)CSC1CCCCC1 | i
CCOc1ccccc1N1CCN(C(=S)Nc2sc(-c3ccccc3)cc2C(=O)OC)CC1 | i
CCC(=O)N(CCC(c1ccc2c(c1)OCO2)c1ccccc1OC)Cc1ccc(OC(C)C)cc1 (stereo not given) | 5%
CC(=O)c1c(C)nc(C)nc1NC(=O)C(C)C | i
CCOc1ccc(-c2cc(C(=O)O)c3ccccc3n2)c(OCC)c1 | i
Cc1nc(Nc2nc3c(c(=O)[nH]2)CCCC3)nc2c(C)cccc12 | 28µg/mL*
O=C(C1CCCN(Cc2ccccc2C(F)(F)F)C1)N1CCCCC1 (stereo not given) | i
COc1cc(CO)cc(Cl)c1OCc1ccccc1C#N | i
N/C(Cc1ccc([N+](=O)[O-])cc1)=N\OC(=O)CCC1CCCCC1 | i
CN(C)Cc1ccccc1C(O)(c1ccccc1)c1ccccc1 | i
CCC1S/C(=N/N=C/c2ccco2)N(c2ccc(F)cc2)C1=O (stereo not given) | i
C=CCN1C(=O)C(O)(CC(=O)c2ccc(Cl)s2)c2cc(Br)ccc21 (stereo not given) | i

Results (from the top)
SMILES | Mtb growth
COc1ccc(Cl)cc1NC(=O)CSC1CCCCC1 | i
CCOc1ccccc1N1CCN(C(=S)Nc2sc(-c3ccccc3)cc2C(=O)OC)CC1 | i
CCC(=O)N(CCC(c1ccc2c(c1)OCO2)c1ccccc1OC)Cc1ccc(OC(C)C)cc1 (stereo not given) | 5%
CC(=O)c1c(C)nc(C)nc1NC(=O)C(C)C | i
CCOc1ccc(-c2cc(C(=O)O)c3ccccc3n2)c(OCC)c1 | i
Cc1nc(Nc2nc3c(c(=O)[nH]2)CCCC3)nc2c(C)cccc12 | 28µg/mL*
O=C(C1CCCN(Cc2ccccc2C(F)(F)F)C1)N1CCCCC1 (stereo not given) | i
COc1cc(CO)cc(Cl)c1OCc1ccccc1C#N | i
N/C(Cc1ccc([N+](=O)[O-])cc1)=N\OC(=O)CCC1CCCCC1 | i
CN(C)Cc1ccccc1C(O)(c1ccccc1)c1ccccc1 | i
CCC1S/C(=N/N=C/c2ccco2)N(c2ccc(F)cc2)C1=O (stereo not given) | i
C=CCN1C(=O)C(O)(CC(=O)c2ccc(Cl)s2)c2cc(Br)ccc21 (stereo not given) | i
COc1ccc(-c2cc3ccccn3c2)c(OC)c1 | i
COc1ccc(CC(=O)N2CCCCCC2)cc1OC | i
COc1ccc(S(=O)(=O)NC2CCCC2)cc1 | i
CC(=O)Nc1cccc(Oc2cc(C#N)c(C#N)cc2N2CCOCC2)c1 | i
O=C(O)CCCCCN1C(=O)C(=O)/C(=C(/O)c2ccc(Cl)cc2)C1c1ccccc1F (stereo not given) | 3%
CC1CCN(C(=O)C2CCN(C(=O)c3ccc(C(C)(C)C)cc3)CC2)CC1 | i
O=C(NNC(=S)NCc1ccco1)c1ccccn1 | i
COc1ccc(OC)c(NC(=O)c2ccc3nc(-c4ccccc4)c(-c4ccccc4)nc3c2)c1 | i
C=CCSc1nc(C)c(CC=C)c(=O)[nH]1 | 7%
CCCNC(=O)c1ccccc1NC(=O)c1ccc(CSc2ccccc2)cc1 | u
Cn1c(SCC(=O)NC2CC2)nnc1-c1cccc(Cl)c1 | i
O=C(Nc1nccs1)c1cc(-c2ccc3c(c2)OCO3)nc2ccccc12 | i
CCn1c(SCC(=O)Nc2cccc3ccccc23)nnc1C(NC(=O)c1ccc(F)cc1)C(C)C (stereo not given) | i
COc1ccc(S(=O)(=O)N(CC(=O)NC2CC2)c2ccc(C)cc2)cc1OC | i
O=C(CS(=O)(=O)c1ccccc1)Nc1ccccc1O | i
CC1(C)C(=O)C2(CCCCC2)C(=O)OC1/C=C/c1ccccc1 (stereo not given) | 1%
O=[N+]([O-])c1ccc(N2CCOCC2)c(C2=NCCc3ccccc32)c1 | i
COc1cccc(-c2nc3cc(NC(=S)NC(=O)c4ccc(OC)c(OC)c4)ccc3o2)c1 | i
O=C(CC1Sc2ccc(C(F)(F)F)cc2NC1=O)Nc1ccc2c(c1)OCO2 (stereo not given) | 0%
COc1ccc(C(=O)Nc2ccc(Cl)cc2F)c(OC)c1 | i
CCC1(C(=O)c2ccc(F)cc2)C2c3cc(Br)ccc3OC(=O)C21C(=O)OC (stereo not given) | i
O=C(Cc1ccc(Cl)cc1)Nc1ccc(Oc2ccc3c(c2)C(=O)NC3=O)cc1 | 1%
Cc1ccc(OCC(=O)Nc2nc3ccc([N+](=O)[O-])cc3s2)c(Br)c1 | i
CCc1ccccc1OCC(=O)Nc1ccccc1C(N)=O | 4%
CC(C(=O)N1CCN(Cc2ccccc2Cl)CC1)N1C(=O)c2ccccc2C1=O (stereo not given) | i
CS(=O)(=O)Nc1ccc(C(=O)Nc2ccc(Br)cc2F)cc1 | i
O=C(N1CCN(c2ncccn2)CC1)C(F)(F)F | 6%
CCOC(=O)c1ccc(NC(=O)N2CCN(Cc3cccc(F)c3)CC2)cc1 | i
COC(=O)c1ccccc1NC(=O)COc1ccc(S(=O)(=O)N(C)Cc2ccccc2)cc1 | i
Cc1cccc(OCC(=O)Nc2ccc(O)cc2C(=O)O)c1 | 1%
COc1ccc(NC(=O)C(C)N(c2ccc(Oc3ccccc3)cc2)S(C)(=O)=O)cc1 (stereo not given) | i
CC(C)CNc1oc(-c2cccs2)nc1C#N | i
COc1ccc(/C(N)=N/OC(=O)c2cc(Cl)ccc2OC)cc1OC | i
Cc1cc(C)cc(C(=O)Nc2ccc(NC(=O)c3ccco3)c(C)c2)c1 | i
Cc1ccc([N+](=O)[O-])cc1NC(=O)c1cc(Cl)ccc1O | 30µg/mL*
CCCCC(=O)NC(=S)NNC(=O)CCc1ccccc1 | i
CC(C)(c1ccccc1)c1ccc(OCCN2CCOCC2)cc1 | i
CCOc1ccccc1NC(=O)C1COc2ccccc2O1 (stereo not given) | 37%

The listing continues:
SMILES | Mtb growth
C#CC(C)(C)OC(=O)Nc1ccccc1C | i
CNC(=O)CSc1nc2ccccc2c(=O)n1C | 6%
COc1cc(NS(=O)(=O)c2ccc(NC(=O)c3ccccc3F)cc2)ncn1 | i
CCOC(=O)CSc1ncc(-c2ccccc2)nn1 | 2%
N#CCSc1nc(-c2cccs2)cc(-c2cccs2)c1C#N | i
CCc1ccc(OCC(=O)Nc2cc(OC)cc(OC)c2)c(Br)c1 | i
Cc1cccc(NC(=O)c2cccc(OCc3ccccc3)c2)c1C | 2%
CCC(C)(C)c1ccc(C(=O)O)c(C(=O)c2ccccc2)c1 | 0%
COc1ccc(OC)c(N2C(=O)CC(Sc3ccccc3C(=O)O)C2=O)c1 (stereo not given) | i
C=COCCNC(=O)Nc1ccc(OC)cc1 | i
CC1(C)CC(n2[nH]c(=O)cc2N)CCO1 (stereo not given) | 4%
CCc1ccc(-c2csc(NC(=O)c3cccnc3)n2)cc1 | i
CC(NC(=O)c1ccccc1NC(=O)COc1ccc(Cl)cc1)c1ccccc1 (stereo not given) | 0%
CCOC(=O)c1c(C)oc2cc(Br)c(OC(C)C(=O)OCC)cc12 (stereo not given) | u
CN(CC(=O)Nc1cccnc1)S(=O)(=O)c1ccc2ccccc2c1 | i
COc1ccc(NC(=S)N2CCCC(C)C2)c(OC)c1 (stereo not given) | i
COc1ccccc1NC(=S)N1CCN(C/C=C/c2ccccc2)CC1 | i
CCC(Oc1ccccc1)C(=O)O/N=C(\N)c1cccnc1 (stereo not given) | i
O=C(c1ccco1)N1CCN(S(=O)(=O)c2ccc(Cl)c(C(F)(F)F)c2)CC1 | 2%
CCn1c(CSCc2ccc(Cl)cc2)nnc1SCC(=O)Nc1cccc(C(=O)O)c1 | i
O=C(Nc1cccc(F)c1)c1cccc(S(=O)(=O)N2CCc3ccccc3C2)c1 | i
CCc1ccc(NS(=O)(=O)c2ccc(OC)c(OC)c2)cc1 | i
CCOC(=O)Cn1c(C)c(C(C)=O)c2ccccc21 | i
Cc1ccc(CNS(=O)(=O)c2ccc(Cl)s2)cc1 | i
CC(C)NC(=O)c1ccc(COCC(F)(F)C(F)F)cc1 | i
O=C(NCCOc1ccccc1Cl)c1ncn[nH]1 | 2%
O=C(CCCOc1ccccc1)Nc1nnc(CCc2ccccc2)s1 | 10%
N#C/C(=C(/O)c1ccc(I)cc1)c1nc2ccccc2s1 | i
O=C(Cn1cc(C(=O)c2cccs2)c2ccccc21)NCc1ccco1 | 0%
FC(F)(F)c1cc(-c2ccccc2)nc(N2CCOCC2)n1 | i

Three records drawn at random from the list so far, as already listed:
SMILES | Mtb growth
CCC(=O)N(CCC(c1ccc2c(c1)OCO2)c1ccccc1OC)Cc1ccc(OC(C)C)cc1 (stereo not given) | 5%
C=COCCNC(=O)Nc1ccc(OC)cc1 | i
COc1ccc(-c2cc3ccccn3c2)c(OC)c1 | i

Other compounds.
SMILES | Mtb growth
Cc1ccc(S(=O)(=O)Oc2ccc3c4c(c(=O)oc3c2C)CCC4)cc1 | i
COC(=O)Nc1cc([N+](=O)[O-])ccc1OC | i
CCn1c(C)c(C(C)=O)c(NCc2ccccc2)nc1=S | i
Cc1cc(Br)ccc1NC(=O)C(=O)NCC1CCCO1 (stereo not given) | i
O=C(Nc1cccc(-c2nc3ccccc3o2)c1)c1cccc(F)c1 | i
O=C1NC(=S)NC(=O)C1=Cc1ccc(OC(=O)c2ccc(Br)cc2)cc1 | i
Cc1cc(NC(=O)c2ccc3nc[nH]c3c2)no1 | i
CC(=O)c1ccc(NC(=S)NCc2ccc(Cl)cc2Cl)cc1 | i
CSc1nc(NNC(C)=O)c2c3c(sc2n1)COC(C)(C)C3 | i
Cc1cc(Cl)ccc1N(CC(=O)Nc1cccc([N+](=O)[O-])c1)S(=O)(=O)c1ccccc1 | 2%
COC(=O)c1c(NC(=O)Cc2ccc([N+](=O)[O-])cc2)sc2c1CCCCC2 | i
COc1ccc(/C=C2\C(=O)NC(=O)N(c3ccccc3)C2=O)c(OC)c1 | i
CCCC(=O)Nc1ccc(Cl)c(NC(=O)c2ccc(C)cc2Cl)c1 | i
COc1ccc(OC)c(NC(=O)c2c(NCc3ccc(OC)c(OC)c3OC)sc3c2CCCC3)c1 | i
CCN(CC)c1ccc(NC(=S)NC(=O)COc2ccc(Cl)cc2C)cc1 | 24%
CCC(=O)Nc1sc(C)c(CC)c1C(=O)NC1CC1 | i
COc1ccc([N+](=O)[O-])cc1NC(=O)c1ccc(I)cc1 | i
Cn1nnnc1SCC(=O)Nc1ccc2c(c1)OCO2 | i
O=C(c1cccc(Cl)c1)N1CCN(c2ccc([N+](=O)[O-])c(NCC3CCCO3)c2)CC1 (stereo not given) | i
O=C1C=C(NCc2ccncc2)CC(c2ccccc2)C1 (stereo not given) | i
N#C/C(=C\C=C\c1ccccc1)S(=O)(=O)c1ccc(Cl)cc1 | i
O=C(Nc1ccc(Oc2ccccc2Cl)cc1)c1ccccc1 | i
COc1ccccc1NC(=O)CC(NCCN(C)C)C(=O)O (stereo not given) | i
CCn1cc(CN(C)C(=S)Nc2cccc(C(C)=O)c2)c(C)n1 | i
O=S(=O)(NCc1ccc2c(c1)OCO2)c1ccc(Br)s1 | i
CCOC(=O)C1CCN(C(=O)CCc2ccc(S(=O)(=O)NCc3ccccc3)cc2)CC1 | i
Cc1ccc(C(=O)N2CCN(c3nc4ccccc4nc3-c3ccccc3)CC2)cc1 | 24%
CCOC(=O)c1c(NC(=O)c2ccco2)sc(C(=O)N2CCCC2)c1C | i
O=C1CCCc2oc3c(cc(NS(=O)(=O)c4ccccc4)c4ccccc43)c21 | 1%
Cc1ccc(S(=O)(=O)N(C)c2ccccc2C(=O)NC(C)(C)C)cc1 | i

Some of the entries above in another layout:
> O=C(c1ccco1)N1CCN(S(=O)(=O)c2ccc(Cl)c(C(F)(F)F)c2)CC1
  Mtb growth: 2%
> CCn1c(CSCc2ccc(Cl)cc2)nnc1SCC(=O)Nc1cccc(C(=O)O)c1
  Mtb growth: i
> O=C(Nc1cccc(F)c1)c1cccc(S(=O)(=O)N2CCc3ccccc3C2)c1
  Mtb growth: i
> CCc1ccc(NS(=O)(=O)c2ccc(OC)c(OC)c2)cc1
  Mtb growth: i

Next results.
SMILES | Mtb growth
Cc1cc(C)cc(OCC(=O)N2CCN(c3ccccn3)CC2)c1 | i
O=C(Cn1cnc2ccccc2c1=O)Nc1cc(Cl)ccc1Cl | i
CCOC(=O)c1ccc(-n2[nH]c(C)cc2=O)cc1 | i
COc1ccc(NC(=O)NCCN2CCN(c3ccccc3F)CC2)c(OC)c1 | i
Cc1nc(NC(=O)c2cc(Br)ccc2Cl)sc1C | 2%
O=C(c1cnn2c1NC(c1ccccc1)CC2C(F)(F)F)N1CCCc2ccccc21 (stereo not given) | 14%
CCC(=O)Nc1ccc(NC(=O)c2ccc(N3CCCC3)c([N+](=O)[O-])c2)cc1 | i
Cc1cccc(NC2C=CS(=O)(=O)C2)c1 (stereo not given) | 4%
COc1ccc(C(C)(C)C)cc1NC(=S)Nc1ccc(S(N)(=O)=O)cc1 | 2%
Cc1sc(NC(=O)c2cc(F)c(F)cc2Cl)c(C(N)=O)c1C | i
CCOC(=O)COc1ccc(S(=O)(=O)NCc2ccco2)cc1 | 20%
COc1ccc(OCCCC(=O)Nc2cccc(C(C)=O)c2)cc1 | i
COc1cc(OC)c(C(=S)N2CCOCC2)cc1OC | i
O=S(=O)(c1cc(Cl)ccc1Cl)N1CCc2ccccc2C1 | 2%
O=C(Nc1cc(Cl)ccc1Oc1ccccc1)c1ccc(CN2CCOCC2)cc1 | i
COc1ccc(OC)c(S(=O)(=O)Nc2cccc(F)c2)c1 | i
COc1ccccc1CC(=O)NCCc1ccc(S(N)(=O)=O)cc1 | 0%
Cc1ccc(C(=O)N2CCC(C(N)=O)CC2)c(C)c1 | i
C=CCn1c(SCC(N)=O)nc2scc(-c3ccc(F)cc3)c2c1=O | i
Cc1cc(NC(=O)CSc2ccccc2)no1 | i
Nc1ccccc1C(=O)CSc1ccccn1 | i
COCCNC(=S)Nc1ccccn1 | i
CC(=O)Nc1cccc(NC(=O)c2c(-c3ccccc3Cl)noc2C)c1 | i
CCOC(=O)c1ccc(NC(=O)COc2cc(Br)c(CO)cc2OC)cc1 | i
COc1ccccc1C(=O)Nc1ccc(S(=O)(=O)N(C)Cc2ccccc2)cc1 | i

Source: PubChem (Southern Research Institute)

A portion of the library; rates above refer to the full screens.
